GLA inh pH 4.5 = inhibitors of human alpha-galactosidase A at pH 4.5 | purified enzyme, 4-MU-alpha-Gal fluorescence, pH 4.5 | 230,000 tested, under 10 active | activity change, negative = inhibition, % at 105 µM; inconclusive = small, poorly fitted or top-dose-only inhibition, or a rising curve; inactive = flat fitted curve, though single readings scatter; no compound was filed as active;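 note: 0% = full activity with enzyme and -100% = basal without enzyme; dose as in the result columns while the protocol names 77 µM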
Rango-impB inh = Rango-importin beta binding inhibition; Rango CFP/YFP FRET sensor + importin beta, 45 min; AID 540263; Potency, µM (top dose mostly 92.2 µM), for the others: at the top dose inhibition of complex formation; actives 0.031% (n = 340,000); Q14974; active = rising FRET ratio curve, often small or poorly fitted; inconclusive = mostly compound fluorescence or quenching in the first reads; inactive = flat curves in all reads;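 note: potency is the fitted concentration of half-maximal effect; 0% = DMSO wells and 100% = buffer wells lacking importin beta; nearly all actives have a fitted effect of over 15% in size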
Target sequence (Q14974 whole entry, looked up): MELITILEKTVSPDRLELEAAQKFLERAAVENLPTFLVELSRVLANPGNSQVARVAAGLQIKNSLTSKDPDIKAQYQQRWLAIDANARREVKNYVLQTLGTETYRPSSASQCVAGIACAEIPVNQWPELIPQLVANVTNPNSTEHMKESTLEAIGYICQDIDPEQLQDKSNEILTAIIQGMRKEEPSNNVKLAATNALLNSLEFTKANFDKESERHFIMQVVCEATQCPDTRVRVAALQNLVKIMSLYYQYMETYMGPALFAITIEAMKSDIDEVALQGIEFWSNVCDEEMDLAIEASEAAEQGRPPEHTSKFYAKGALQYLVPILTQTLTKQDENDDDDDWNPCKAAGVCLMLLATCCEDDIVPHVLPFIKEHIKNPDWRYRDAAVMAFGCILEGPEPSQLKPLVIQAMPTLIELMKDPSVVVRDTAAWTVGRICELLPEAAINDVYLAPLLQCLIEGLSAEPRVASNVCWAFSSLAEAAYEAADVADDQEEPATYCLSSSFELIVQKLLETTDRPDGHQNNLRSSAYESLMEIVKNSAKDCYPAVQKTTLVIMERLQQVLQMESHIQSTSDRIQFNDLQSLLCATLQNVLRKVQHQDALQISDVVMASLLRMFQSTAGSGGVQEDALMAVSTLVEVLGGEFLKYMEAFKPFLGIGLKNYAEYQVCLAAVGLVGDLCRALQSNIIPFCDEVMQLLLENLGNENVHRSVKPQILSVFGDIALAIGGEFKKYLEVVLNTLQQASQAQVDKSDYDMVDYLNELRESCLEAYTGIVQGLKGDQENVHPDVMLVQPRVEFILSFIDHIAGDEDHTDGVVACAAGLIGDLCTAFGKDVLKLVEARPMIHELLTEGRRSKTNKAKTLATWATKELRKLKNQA
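Inhibition scored from the CFP 486 nm/YFP 530 nm FRET ratio 45 min after adding 0.125 microM importin beta to 50 nM Rango biosensor preincubated 5 min with compound (room temperature, PBS with DTT, Tween-20, BSA). No-importin wells as positive control.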
miR-21 FLuc = raises the signal of a miR-21 reporter; HeLa miR-21 FLuc reporter, luciferase, 48 h; Potency, µM (titrated, usually from 38.3 µM), for inactives: at the top dose reporter change, positive = more light; 340,000 tested, under 10 active; AID 2288; active = well fitted rising curve with a large enough effect; inconclusive = small, poorly fitted or top-dose-only effect; inactive = no such curve, though single readings can be large or run the other way;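 note: % of control where 0% means no effect; miR-21 action dims this reporter so a rising signal means less miR-21 action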
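Compounds were titrated across several concentrations (up to approximately 40 uM) and incubated 48 hours with HeLa miR-21-FLuc reporter cells (miR-21 target sequence downstream of FLuc, endogenous miR-21). Readout was firefly luciferase luminescence after lytic detection reagent.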
Rango release inh = inhibition of RanGTP-driven Rango-importin beta dissociation; Biochemical FRET Rango-importin beta, RanGTP-induced dissociation; Potency, µM (doses to about 46.1 µM), inactives show at the top dose activity change, negative = inhibition; actives 0.071% (n = 340,000); AID 540253; active means falling FRET ratio curve, often poorly fitted, with flat reads before Ran was added; inconclusive means other falling curves, or compound fluorescence or quenching; inactive means flat or rising ratio curve;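 note: potency is the fitted concentration of half-maximal effect; % of control where 0% means no effect; nearly all actives have a fitted effect of over 45% in size; -100% = wells without RanGTP and RCC1; the record marks most hits as doubtful in a second field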
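Rango FRET biosensor (snurportin-1 IBB flanked by N-terminal EYFP and C-terminal CFP10) at 0.1 uM, with 0.25 uM importin beta in PBS, 1mM DTT, 0.02% Tween-20, 0.1% BSA. 0.6 uM Ran, 2mM GTP and 0.2 uM RCC1 were then added for 45 min at room temperature. Inhibition read as loss of FRET rise.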
Active calls of the source: *; ? = inconclusive; nt = no result given; & = joins results of further samples. An excerpt; the hit share may differ from the screen's.

SMILES	GLA inh pH 4.5	Rango-impB inh	miR-21 FLuc	Rango release inh
O=C(O)C1CC=CCC1C(=O)Nc1ccccc1C(=O)N1CCN(c2ccc(F)cc2)CC1 (configuration not stated)	-4	-1.1%	-9%	1%
O=C1CSC(c2ccccc2)N1c1cccnc1 (configuration not stated)	1	0.3%	0%	5%
COc1cc2ccccc2cc1C(=O)Nc1ccc(N2CCN(C)CC2)cc1	3	3.2%	-97%	4%
Cc1ccsc1-c1nc(CSCC(=O)NCc2ccc3c(c2)OCO3)c(C)o1	-13	0.0%	-22%	9%
O=C1CN(C(=O)COC(=O)Cc2ccsc2)c2ccccc2N1	-2	-1.3%	-6%	-11%
CS(=O)(=O)c1ccc2nc(NC(=O)C3COc4ccccc4O3)sc2c1 (configuration not stated)	-1	0.8%	-42%	-8%
Cc1ccc(S(=O)(=O)N(CC(=O)O)c2ccc(Cl)c(C(F)(F)F)c2)cc1	2	-0.8%	-1%	12%
CC(C)NC(=O)CC1(C(=O)NCc2ccc(Cl)cc2)CCCC1	nt	-0.9%	2%	-7%
COc1ccc(N2CCN(C(=O)c3ccccc3N(C)S(=O)(=O)c3ccccc3)CC2)cc1	nt	0.0%	-1%	13%
COC(=O)C1=C(C)NC(=O)CC1c1ccccc1 (configuration not stated)	0	4.1%	-7%	2%
CN(C)C(=O)Cn1c(SCC(=O)N2CCCc3ccccc32)nc2ccccc21	0	-1.5%	-4%	-1%
NC(=O)CN1C(=O)/C(=c2\sc3nc(=O)c(Cc4ccccc4)nn3c2=O)c2ccccc21	-3	-0.9%	0%	13%
Cc1cc(C)c2c(N)c(C(=O)NN)sc2n1	-1	?	-38%	?
CCOc1ccc(/C=C/C(=O)N2CCOCC2)cc1OC	nt	1.7%	-7%	-3%
CN(C)c1nc(Nc2ccccc2)nc(Oc2ccc(=O)[nH]n2)n1	-4	5.9%	-5%	-7%
O=C(O)/C=C/C(=O)Nc1cccnc1	-4	-1.4%	-1%	-5%
Cc1cc(C)n(CC(=O)n2nc(C)cc2C)n1	6	3.7%	-5%	9%
O=C(NCC(c1ccco1)N1CCc2ccccc2C1)C(=O)Nc1ccc(F)cc1F (configuration not stated)	nt	1.6%	nt	0%
Cn1c(=O)c2c(nc(SCc3ccccc3F)n2C)n(C)c1=O	nt	1.4%	4%	-8%
COc1cc(NC(=O)CNc2cccc(S(=O)(=O)N3CCCC3)c2)cc(OC)c1	nt	-1.2%	19%	5%
O=S(=O)(c1cccc(-c2nnc(-c3ccc(Br)cc3)o2)c1)N1CCCCCC1	-4	1.3%	-7%	20%
CC(=O)Nc1ccc(S(=O)(=O)NC(C)C(=O)NC(C)c2ccccc2)cc1 (configuration not stated)	-5	1.4%	-4%	-4%
O=C(Cc1ccccc1)Nc1c2c(nn1-c1cccc(Cl)c1)CS(=O)(=O)C2	-22	0.3%	-2%	9%
O=C(NCc1cccnc1)Nc1cccc(NC(=O)NCc2cccnc2)c1F	-1	-4.8%	-1%	1%
O=C(COC(=O)c1ccccc1)NCCC1=CCCCC1	4	-1.9%	-1%	16%
COc1ccc(NS(=O)(=O)c2cccc(C(=O)O)c2)cc1S(=O)(=O)N1CCCCC1	nt	1.7%	nt	4%
CCSc1nnc(NC(=O)NCC(F)(F)F)s1	3	2.4%	-5%	-11%
CN(C)c1ccc(NC(=O)CN2C3CCCC2CC(NC(=O)c2ccccc2)C3)cc1 (configuration not stated)	nt	2.6%	6%	-2%
COC(=O)CCCC[C@H]1SC[C@H]2NC(=O)N[C@]21O	11	nt	-2%	nt
Cc1ccc(C(=O)Nc2cccnc2)cc1[N+](=O)[O-]	-3	-0.2%	-12%	-1%
COc1ccccc1N1CCN(C2CCN(C(=O)c3cccc(F)c3)CC2)CC1	-2	-6.0%	0%	11%
CC(C)CN(CCNC(=O)CN1N=C(c2ccc(Cl)cc2)CCC1=O)CC(C)C	nt	-1.3%	1%	-10%
Cc1sc2nc(SCC(=O)NCCOCCO)n(C)c(=O)c2c1C	-3	-1.0%	0%	11%
CCN(Cc1cc(=O)[nH]c2ccccc12)C(=O)C(C)C	-15	6.5%	-1%	10%
CCOc1ccc(CCNC(=O)c2cccc(C#N)c2)cc1OCC	7	3.0%	1%	13%
COc1cc(/C=C2/N=C(c3ccccc3)OC2=O)c(F)cc1OCc1ccccc1	nt	?	nt	-24%
COc1ccc(C)cc1NC(=O)CN(c1ccc(C)cc1)S(C)(=O)=O	4	-0.5%	-13%	8%
CCC(C)[C@H]1COCCS(=O)(=O)N1Cc1ccccc1F (some centres not stated)	nt	3.6%	3%	6%
CC12COC3(C(=O)N4CCN(c5ccccn5)CC4)CC1CCC32C (configuration not stated)	2	-3.7%	2%	0%
Cc1ncc(CO)c(/C=N/NC(=O)c2ccc(O)cc2)c1O	1	?	-11%	?
COc1ccccc1CCCNC(=O)C1CCC(=O)N(CCc2ccc(Cl)cc2)C1 (configuration not stated)	nt	6.4%	8%	15%
COc1ccc(N2CCN(C(=O)Cc3csc(NC(=O)Nc4ccccc4OC)n3)CC2)cc1	nt	-4.4%	nt	-7%
CC1=C(C(=O)OC2CCCCC2)C(c2cccnc2)n2ncnc2N1 (configuration not stated)	-6	4.3%	-14%	-4%
CCC(C(=O)O)P(=O)(c1ccc(Cl)cc1)c1ccc(Cl)cc1 (configuration not stated)	3	3.2%	1%	-3%
Cc1cc2cc(C(c3nnnn3C3CCCC3)N(Cc3cccnc3)Cc3ccco3)c(=O)[nH]c2cc1C (configuration not stated)	-12	?	0%	?
COC(=O)[C@H]1C[C@@H]1[C@H](NS(=O)(=O)c1ccccc1)c1ccccc1	-14&-17	-3.1%	-1%	7%
O=C(CP(=O)(CO)CO)c1ccc(Cl)cc1	6	4.7%	4%	-8%
COc1ccc(CN(C(=O)c2oc3ccc(F)cc3c2C)C2CCS(=O)(=O)C2)cc1 (configuration not stated)	nt	0.2%	-17%	3%
O=C1NCCN(Cc2c(F)cccc2Cl)C1CC(=O)N1CCCO1 (configuration not stated)	1	?	-2%	0%
OC(CNCCNc1ncccc1C(F)(F)F)COc1ccc(F)cc1 (configuration not stated)	-2	-0.2%	-1%	0%
O=C(C[C@@H]1C/C=C\C[C@@H](Cc2ccc(F)cc2)C(=O)OC[C@@H](Cc2c[nH]c3ccccc23)NC1=O)NCCO	nt	1.0%	nt	-16%
CCc1c(C)sc(NC(=O)c2ccco2)c1C(=O)N1CCCCC1	-3	-4.4%	-1%	-10%
O=C1CCN(S(=O)(=O)c2ccccc2)CCN1CCOCc1cccc(F)c1	1	2.8%	0%	-4%
COc1ccc(NC(=O)Cn2nc(C(=O)O)c3ccccc3c2=O)cc1OC	nt	0.2%	-1%	10%
C=C(C)Cn1c(C2CC(=O)N(Cc3ccccc3)C2)nc2ccccc21 (configuration not stated)	-2	0.4%	-7%	1%
CN(C)c1ccc(CNC(=O)CN(C)S(=O)(=O)c2ccc3c(c2)c(=O)n(C)c(=O)n3C)cc1	nt	-3.7%	4%&0%	18%
NC(=O)N/N=C\c1cc(Br)ccc1O	11	-0.3%	-4%	-7%
O=C(Nc1cccc(Cl)c1)Nc1cnccn1	nt	2.9%	-7%	-13%
CN(C)S(=O)(=O)c1ccc(C(=O)Oc2ccccc2)cc1	-4	-5.2%	1%	-4%
CN1CCN(CCc2nc3cc(NC(=O)COc4ccc(Cl)cc4)ccc3n2C)CC1	nt	-2.7%	1%	-5%
New compounds follow.
SMILES	GLA inh pH 4.5	Rango-impB inh	miR-21 FLuc	Rango release inh
COc1cccc(N2C(=O)C(Cc3c[nH]c4ccccc34)NC2=S)c1 (configuration not stated)	9	?	-3%	-25%
CCCn1cc(S(=O)(=O)CC(=O)N2CCc3ccccc32)c2ccccc21	-5	1.1%	-18%	-15%
O=C(c1ccccc1)c1ccc(CN2C(=O)c3ccccc3C2=O)o1	0	0.6%	-8%	13%
CCCn1c(NCc2ccc(C)o2)nc2ccccc21	-7	4.6%	-13%	8%
Cc1cc(C)c2ccc(C)[n+]([O-])c2c1O	5	-0.4%	5%	-15%
COc1ccc(N2CCN(C(=O)C(NC(=O)c3c(F)cccc3F)C(C)C)CC2)cc1 (configuration not stated)	nt	-0.2%	2%	14%
CCCCCCN1C(=O)C(O)=C(C(C)=O)C1c1ccc(Cl)cc1 (configuration not stated)	2	0.1%	-5%	-7%
Cc1cccc(C(=O)NC(=S)N2CCN(c3ccc([N+](=O)[O-])cc3)CC2)c1	-13	-0.9%	-5%	-13%
Cc1ccc(-c2nnn(CC(=O)NCC3COCCO3)n2)o1 (configuration not stated)	8	1.6%	-9%	-6%
Nc1nc(SCc2ccc(F)cc2)ns1	2	-3.1%	-30%	-1%
COc1ccc(C(=O)N/N=C2\CCc3ccccc32)cc1OC	6	0.6%	-28%	0%
CCN(CCO)c1nc(NCc2ccccc2)c2cnn(C)c2n1	nt	-3.3%	-10%	8%
CC(=O)c1cc(F)c(N2CCCC2)cc1C	7	2.1%	-8%	-6%
C=CCSC1=C(C#N)C2(CCCCC2)C(C#N)C(=O)N1 (configuration not stated)	5	2.9%	-4%	-5%
CC1Cc2ccccc2N1C(=O)c1ccc(N2CCCCC2)c([N+](=O)[O-])c1 (configuration not stated)	-19	-1.9%	1%	-12%
CC(=O)c1c2c3c(c(Br)ccc3n(C)c1=O)C(=O)c1ccccc1-2	nt	-1.6%	0%	0%
COc1ccc(OCC(=O)Nc2c3c(nn2-c2ccc(OC)cc2)CS(=O)(=O)C3)cc1	nt	-0.1%	1%	-7%
CSc1ccc(-c2cc(=O)c3ccccc3o2)cc1	24	-2.1%	-45%	-13%
COCCN(C(=O)COC(=O)c1ccccc1Oc1ccccc1)c1c(N)n(Cc2ccccc2)c(=O)[nH]c1=O	nt	3.5%	4%	-14%
COc1ccc(-c2cn3ccsc3n2)cc1	8	0.0%	-25%	-13%
CCOCCCNC(=O)C(C)NS(=O)(=O)c1ccc(C)cc1 (configuration not stated)	-11	-1.0%	0%	-5%
O=C(CN1c2cccc3cccc(c23)S1(=O)=O)NCc1ccc(Cl)cc1	nt	2.5%	nt	-8%
COc1ccc2ccccc2c1CNCc1ccc(C)cc1	nt	-0.1%	0%	18%
CCOc1ccc(-n2c(SCC(=O)Nc3nccs3)nc3c(c2=O)SCC3)cc1	-9	0.0%	-1%	-27%
Cc1cccn2c(=O)c(/C=C(\C#N)C(=O)NC3CCS(=O)(=O)C3)c(N3CCC(C)CC3)nc12 (configuration not stated)	20	?	-17%	?
Cc1ccc(NC(=O)COc2cccc3ccccc23)c(O)c1	nt	-2.5%	nt	1%
CS(=O)(=O)N(CC(=O)N1CCCCCC1)c1cccc(Br)c1	7	0.0%	1%	-9%
O=C(Cc1ccc2ccccc2c1)Nc1ccccc1Br	nt	0.0%	-3%	-18%
COCCn1c(=O)[nH]c2cc(C(=O)NCCCN3CCN(c4ccc(F)cc4)CC3)ccc2c1=O	8	-0.2%	1%	-12%
CCN(CC)S(=O)(=O)c1cccc(NC(=O)C2SC(=Nc3ccc(C)cc3C)C(C(=O)NC(C)COC)=C2N)c1 (configuration not stated)	-6	-0.4%	13%	2%
